Screens from PubChem BioAssay.
NS1 function inh: inhibitors of influenza NS1 protein function | AID 2326 | Potency, µM (top dose mostly 46.1 µM), for the others: at the top dose activity, positive = more growth | S. cerevisiae slowed by influenza A NS1, growth recovery by OD600 | hit rate 0.4% among 270,000; also: actives are rising curves; nearly all actives have a fitted effect of over 50% in size
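Growth recovery, yeast-based: influenza A NS1 expressed in S. cerevisiae causes slow growth, and suppressors are detected by OD600. The parent strain without NS1 is used as positive control.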
SARS PLpro yeast: blocks SARS-CoV papain-like protease in a yeast assay; S. cerevisiae expressing SARS-CoV PLpro, growth rescue; control for the full effect not named in the record; Potency, µM (doses to about 32.9 µM), for the others: top-dose activity, positive = growth rescue; hit rate 0.19% among 330,000; AID 485353; also: 0% is about no effect; nearly all actives have a fitted effect of over 55% in size; growth read by luminescence after 48 h
MARV entry inh: blocks Marburg virus binding to or entry into cells. hit rate 1.8% among 300,000. Marburg virus pseudotyped entry inhibition, cell reporter; control for the full effect not named in the record; about a third of the inactives were read at about 46 µM. AID 540276. Potency, µM (top dose mostly 37.8 µM), inactives show top-dose activity change, negative = inhibition, hits mostly inhibitors; active = well fitted inhibition curve with a large enough effect; inconclusive = small, poorly fitted or top-dose-only effect, or effect the other way; inactive = flat fitted curve, though single readings scatter; tested in HEK293 cells; about a fifth of its hits are not listed in these tables; also: % is scaled to controls: 0 for no effect and ±100 for the full control effect; luciferase read-out
Cruzain inh Det: cruzain (T. cruzi) inhibition with detergent; P25779; purified cruzain, Z-FR-AMC fluorescence, 0.01% Triton; Potency, µM, for the others: max response, negative = inhibition, usual class: inhibitors; hit rate 0.43% among 200,000; AID 1478; active = well fitted curve in the direction sought with a large enough effect; inconclusive = small, poorly fitted or top-dose-only effect, or another doubt; inactive = no such curve, though single readings can be large; an effect the other way counts as inactive or inconclusive;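 also: plate controls were neutral wells for no effect and buffer without enzyme for full effect; nearly all actives have a fitted effect of over 40% in size; top concentration of the series not given in the record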
Target sequence (P25779 123-467 limits assumed): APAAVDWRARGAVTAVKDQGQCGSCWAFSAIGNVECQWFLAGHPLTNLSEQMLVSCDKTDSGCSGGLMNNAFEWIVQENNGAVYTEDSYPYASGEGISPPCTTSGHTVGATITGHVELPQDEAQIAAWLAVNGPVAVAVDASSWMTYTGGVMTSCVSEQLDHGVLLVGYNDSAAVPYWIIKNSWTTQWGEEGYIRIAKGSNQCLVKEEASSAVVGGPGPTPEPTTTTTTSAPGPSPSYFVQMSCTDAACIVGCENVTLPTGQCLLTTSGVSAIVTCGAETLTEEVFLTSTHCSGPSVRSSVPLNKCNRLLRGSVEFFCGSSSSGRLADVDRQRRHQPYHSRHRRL
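Purified cruzain (1.5 nM final) was preincubated with compounds for 15 min at room temperature in 100 mM sodium acetate pH 5.5, 5 mM DTT, 0.01% Triton X-100. Reaction started with 2 uM Z-FR-AMC; AMC fluorescence change over 60 s gave activity.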
RE007 growth inh: less growth of the S. pombe RE007 Vpr strain | S. pombe RE007 Vpr strain, BacTiter-Glo ATP luminescence, 24 h; control for the full effect not named in the record | Potency, µM (top dose mostly 92.2 µM), for inactives: at the highest dose activity change, negative = less growth | hit rate 0.21% among 360,000; active = well fitted falling curve with a large enough effect; inconclusive = small, poorly fitted or top-dose-only effect; inactive = no such curve, though single readings can be large or run the other way;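 also: % is scaled to controls: 0 for no effect and ±100 for the full control effect; nearly all actives have a fitted effect of over 50% in size; the assay follows cell death caused by Vpr and the record does not say whether a fall means rescue or toxicity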
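Fission yeast strain RE007, carrying one chromosomally integrated HIV-1 vpr copy, was seeded at OD 0.01 in PMG+AL medium with 23 nL pinned compound. After 24 h at 30 °C and 99% humidity, viability was read by BacTiter-Glo luminescence.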
LASV entry inh: inhibitors of Lassa virus binding or cell entry; hit rate 1.2% among 300,000; Lassa virus pseudotype entry inhibition, cell reporter; control for the full effect not named in the record; Potency, µM (titrated, usually from 37.9 µM), inactives show top-dose activity change, negative = inhibition, actives largely listed as inhibitors; active means well fitted inhibition curve with a large enough effect; inconclusive means small, poorly fitted or top-dose-only effect, or effect the other way; inactive means flat fitted curve, though single readings scatter; tested in HEK293 cells; also: % is scaled to controls: 0 for no effect and ±100 for the full control effect; nearly all actives have a fitted effect of over 50% in size; luciferase read-out
Cruzain noTriton: cruzain (T. cruzi) inhibition without detergent; P25779; purified cruzain, Z-FR-AMC fluorescence, no detergent; Potency, µM, without a hit: max response, negative = inhibition, most hits filed as inhibitors; hit rate 2.3% among 200,000; AID 1476; active = well fitted curve in the direction sought with a large enough effect; inconclusive = small, poorly fitted or top-dose-only effect, or another doubt; inactive = no such curve, though single readings can be large; an effect the other way counts as inactive or inconclusive;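 also: plate controls were enzyme without inhibitor for no effect and buffer without enzyme for full effect; nearly all actives have a fitted effect of over 40% in size; top concentration of the series not given in the record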
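Detergent-free condition (0.00005% Triton X-100) in acetate buffer pH 5.5 with DTT. 1.5 nM enzyme and compound were pre-mixed 15 min, then 2 uM Z-FR-AMC substrate added; reaction progress from fluorescence change between first and third reads (60 s).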
StopGo reporter: FMDV 2A StopGo reporter, luciferase signal | hit rate 1.2% among 410,000 | Potency, µM (top dose mostly 57.9 µM), for inactives: at the highest dose signal change, negative = less light | AID 1159524 | human cells with a luciferase reporter of 2A StopGo recoding; control for the full effect not named in the record; active = well fitted falling curve with a large enough effect; inconclusive = small, poorly fitted or top-dose-only effect; inactive = no such curve, though single readings can be large or run the other way; tested in HEK293T cells; also: % is scaled to controls: 0 for no effect and ±100 for the full control effect; nearly all actives have a fitted effect of over 45% in size; luciferase light after 4 h
* = called active by the depositor; ? = inconclusive; . = not tested or not shown; & = joins results of further samples; [ ] = dose if it differs, or a comment. Unless noted, calls follow the shape of the dose curve; as a rule, active means well fitted rising curve with a large enough effect; inconclusive means small, poorly fitted or top-dose-only effect; inactive means no such curve, though single readings can be large or run the other way. Potency is read from the fitted curve at half-maximal effect. Compounds were not picked by outcome; overall some 4.8% were active at least once.

SMILES	NS1 function inh	SARS PLpro yeast	MARV entry inh	Cruzain inh Det	RE007 growth inh	LASV entry inh	Cruzain noTriton	StopGo reporter
O=C(NCCc1cccc(F)c1)C1CCCN(c2nc3ccccc3s2)C1 (stereo not given)	-15%	0%	-29%[46.1 µM]	.	-23%	-7%[46.1 µM]	.	9%
COC(=O)c1sccc1S(=O)(=O)N(CC(=O)Nc1ccc(C)c(F)c1)c1ccc(C)c(C)c1	.	.	.	-3.1%	.	?	?	20%
O=C(CCC(=O)Nc1ccccc1)NNC(=O)c1ccco1	15%	9%	0%	8.4%	8%	4%	3%	5%
CCN(CC)S(=O)(=O)c1ccc(N2CCOCC2)c(NC(=O)c2ccccc2)c1	-27%	16%	30%	-2.9%	-2%	-1%	3%	12%
COc1ccc(CCNC(=O)CSc2nnc3c(n2)[nH]c2ccc(F)cc23)cc1OC	5%	8%	-3%[46.1 µM]	.	1%	-7%[46.1 µM]	.	-5%
CC1CCc2ccccc2N1C(=N)N(C)C (stereo not given)	5%	1%	0%[46.1 µM]	.	1%	18%	.	-2%
O=C(O)/C(=C\c1ccc(Br)cc1)NC(=O)c1cccs1	4%	0%	13%[46.1 µM]	.	24%	-10%[46.1 µM]	.	15%
COc1cc2c(cc1OC)C(O)C(O)(CO)C(C(=O)O)C2c1cc(OC)c(OC)c(OC)c1 (stereo not given)	.	.	?	.	10%	4%[46.1 µM]	.	12%
CCN(CC)c1nc2c3c(nc4c(c3c1C#N)CC(=O)N4c1ccc(Cl)cc1)NC(C)=N2	14µM*	18%	?	-5.7%	3%	-7%	15%	-9%
Cc1cc(-c2ccc(C)c(S(=O)(=O)NCC3CCN(Cc4ccccc4F)CC3)c2)on1	-26%	-5%	?	1.8%	5%	?	3%	32%&19%[activator]
CCCCNC(=O)c1onc(CSc2ccc(F)cc2)c1C(=O)O	18%	6%	.	4.6%	-5%	.	-11%	0%
O=C(CCC(=O)c1ccc(-c2ccccc2)cc1)Nc1cccnc1	5%	2%	-5%	.	-11%	.	.	-8%
Cc1nc2cc(-c3ccc(F)cc3)nn2c(N2CCOCC2)c1C	0%	1%	-8%	-0.8%	.	.	-4%	.
OC(CN1CCOCC1)c1csc2ccccc12 (stereo not given)	.	.	5%	.	-8%	14%	.	5%
Cc1cc(=O)n2nc(N3CCCC(C(=O)NCCC4=CCCCC4)C3)sc2n1 (stereo not given)	-16%	2%	21%	1.6%	8%	1%	2%	-11%
CC(OC(=O)C1CCC1)C(=O)Nc1cc(Cl)cc(Cl)c1 (stereo not given)	.	-20%	0%	.	15%	?	.	?
CCCNC(=O)CSc1nc2ccccc2nc1Cc1ccc(Cl)cc1	.	.	.	4.9%	.	12%[46.1 µM]	-10%	0%
Cn1ncc(C#N)c1/N=C/N(Cc1ccccc1)Cc1ccccc1	-40%	-11%	?	-3.9%	4%	?	-23%	?
O=C(Nc1ccc(Cl)c([N+](=O)[O-])c1)c1ccncc1	-18%	-13%	?	-4.3%	3%	?	-4%	-13%
N#CCCn1cc(/C=C(\C#N)c2nc3ccccc3s2)c(-c2ccc(F)cc2)n1	8%	?	-13%	-2.6%	30%	-22%	?	-12%
CC(C)(C)c1ccc(OCCCC(=O)NNC(=O)c2ccccc2O)cc1	.	6%	?	.	3%	?	.	-17%
Cc1c(C(=O)O)oc2c1ccc1ccccc12	-123%	-6%	0%[46.1 µM]	-1.0%	10%	-14%	-14%	-5%
COc1ccc(CCC(=O)N2CCCC(Nc3ccc(C)c(C)c3)C2)cc1OC (stereo not given)	0%	-1%	.	.	-9%	.	.	-7%
O=S1(=O)CCOC[C@H](CC2CCCCC2)N1Cc1ccc(Cl)cc1	22%	1%	.	.	-6%	.	.	-24%
O=C1C2CC=CCC2C(=O)N1c1ccc(NCCc2cccc(F)c2)c([N+](=O)[O-])c1 (stereo not given)	4%	-1%	-1%	-5.3%	0%	?	6%	-18%
Cc1ccc(CNS(=O)(=O)c2ccc(-c3cc(C(F)(F)F)on3)s2)cc1	.	.	.	-0.3%	.	9%[46.1 µM]	-3%	-4%
CCOc1cc(N2CCOCC2)c(OCC)cc1NC(=O)c1ccc(OCc2c(C)noc2C)c(OC)c1	14%	?	-27%	-12%	9%	?	?	?
O=C(Nc1ccccc1)N1C(=O)C2(OCCO2)c2ccccc21	3%	-2%	-1%	7.0%	-14%	-17%	-8%	10%
C=CCSc1ccsc1C(=O)O	-5%	7%	22%	1.4%	12%	6%	0%	-10%
c1ccc2c(-c3cc(C4CCNCC4)[nH]n3)cccc2c1	.	1%	?	.	23%	?	.	-7%
O=C(Nc1nnc(C2CC2)s1)c1cccc(S(=O)(=O)N2CCc3ccccc32)c1	4%	6%	27%[46.1 µM]	2.7%	35%	-9%	-28%	-22%
COc1cccc2cc(C(=O)C3=C(O)C(=O)N(CCN4CCOCC4)C3c3ccc(C)o3)oc12 (stereo not given)	19%	-12%	-20%[46.1 µM]	.	-6%	20%[46.1 µM]	.	12%
COc1ccnc(Oc2ccc(F)cc2)c1-c1ncn[nH]1	.	1%	5%[46.1 µM]	.	-23%	-17%[46.1 µM]	.	5%
CCCCOC(=O)c1ccc(NC(=O)c2ccc3c(c2)CCN3S(C)(=O)=O)cc1	.	.	?	-4.5%	.	4%[46.1 µM]	14%	35µM*
O=C(NC1CCCC1)C1CCC(CNS(=O)(=O)c2cccs2)CC1 (stereo not given)	?	4%	5%	-0.8%	3%	-3%	5%	-18%
CCn1c(CNc2ccc(Cl)cc2)nnc1SCC(=O)OC1CCCCC1	-26%	-5%	?	-8.7%	11%	-14%	23%	-30%
O=C(CSc1nc(=O)[nH]c2c1CCCC2)NCc1ccc(Cl)cc1	.	.	.	1.9%	.	-2%[46.1 µM]	-9%	-9%
CCOC(=O)c1ccc(NC(=O)CCOc2ccccc2)cc1	-60%	-3%	?	-1.8%	-1%	2%	-25%	9%
CN1CCN(C(=O)c2ccc(CNS(=O)(=O)c3ccc(F)c(Cl)c3)cc2)CC1	6%	1%	.	.	7%	.	.	?
Cc1cc(=O)[nH]c2nnc(SCC(=O)Nc3cc(C(F)(F)F)ccc3Cl)n12	.	.	.	-3.1%	.	9%[46.1 µM]	?	-3%
COc1cc(NC(=O)c2ccc(Br)cc2)ccc1NC(=O)c1cc2ccccc2o1	5%	-1%	.	.	-3%	.	.	-11%
Brc1ccc(CSc2nnc(-c3ccccn3)n2Cc2ccco2)cc1	-65%	-22%	?	-7.1%	13%	32%[14.3 µM]	1%	?
Cc1cccc(C(=O)NC(=S)NNC(=O)c2ccccc2Cl)c1	-80%	-42%	?	6.1%	-46%	?	2%	-13%
COc1ccccc1N1CC(C(=O)Nc2nnc(SCc3cccnc3)s2)CC1=O (stereo not given)	0%	-5%	1%	.	1%	4%	.	-17%
Cc1cc(NC(=O)CCC2CCCCC2)no1	-1%	-11%	-6%[46.1 µM]	-2.2%	11%	?	1%	61%[activator]
CCc1nnc(NS(=O)(=O)c2ccc(NC(=S)NC(=O)c3ccc(Br)cc3)cc2)s1	2%	-2%	-10%	?	-17%	9%	7%	-10%
O=C(c1ccc(S(=O)(=O)Nc2ccccc2F)cc1)N1CCN(c2ccccc2O)CC1	.	1%	-22%	.	-3%	?	.	-24%
Cc1cccc(NC(=O)Cc2coc3ccc4ccccc4c23)n1	-55%	-24%	6.5µM*	-8.5%	?	?	?	-5%
COC(=O)C1=C(c2ccccc2)c2ccccc2S(=O)(=O)N1CC(=O)Nc1ccc(OC)cc1OC	.	.	?	-6.9%	.	?	-4%	-14%
CC(=O)C1=C(C)NC(=O)NC1c1ccccc1 (stereo not given)	-16%	2%	12%	0.8%	9%	1%	5%	-10%
CC(=O)Nc1nonc1NC(=O)COc1ccccc1	.	-1%	6%[46.1 µM]	.	-4%	-2%	.	5%
O=C(NCc1csc(-c2ccccc2)n1)c1ccco1	-72%	-8%	5%	0.4%	1%	-1%	8%	53%[activator]
COc1ccc(C(=O)Nc2ccc(NC(=O)C3CCCCC3)nc2)cc1	-3%	-1%	-9%[46.1 µM]	.	-11%	-1%	.	-9%
O=c1c2ccccc2nc(-c2ccc(Cl)cc2Cl)n1O	.	5%	31%[46.1 µM]	.	2%	9%	.	-4%
CN(C)CCNC(=O)CN1C(=O)COc2ccc(C(C)(C)C)cc21	-3%	6%	.	2.5%	4%	.	-16%	5%
CC(C)CNC(=S)NC(=O)c1ccccc1Cl	10%	?	-2%	-4.0%	-19%	12%	3%	39%[activator]
COc1ccc(NC(=O)C(C)n2c(C)c3cnn(-c4ccccc4)c(=O)c3c2C)cc1Cl (stereo not given)	.	.	?	-0.8%	.	1%[46.1 µM]	16%	-28%
COc1ccc(C(=O)NCc2ccncc2)cc1S(=O)(=O)N1CCOCC1	.	0%	0%	.	1%	-10%	.	-9%
COC(=O)n1c(=O)oc2ccc(S(=O)(=O)N3CCCCC3)cc21	-12%	0%	10%	.	-4%	-1%	.	8%
CCOC(=O)C1CCN(C(=O)c2c(-c3ccccc3)noc2C)CC1	2%	1%	.	.	-15%	7%	.	-24%

(continued)
SMILES	NS1 function inh	SARS PLpro yeast	MARV entry inh	Cruzain inh Det	RE007 growth inh	LASV entry inh	Cruzain noTriton	StopGo reporter
COCCn1c(N)c(C(=O)Nc2sc3c(c2C(=O)OC)CCCC3)c2nc3ccccc3nc21	2%	-2%	-1%&-1%	4.3%	5%	11%	17%	-7%
O=C(NCc1nc2ccccc2[nH]1)c1c(F)c(F)c(F)c(F)c1F	3%	1%	?	.	-17%	2%	.	-9%
Cc1cccc(CN2CCC(CNC(=O)Cn3ncc4c([nH]c5ccccc54)c3=O)CC2)c1	0%	-1%	.	.	-8%	.	.	-22%
Cc1cc(C)cc(NC(=O)Nc2c[nH]c(=O)[nH]c2=O)c1	.	.	-1%[46.1 µM]	-0.5%	.	0%[46.1 µM]	-13%	-23%
OC1CCN(C(=S)Nc2ccc(Oc3ccccc3)cc2)CC1	-4%	0%	.	.	4%	.	.	?
COc1cc(C2=NC(CO)(CO)CO2)cc(OC)c1OC	-1%	-1%	?	.	94%	.	.	14%
